Screening data from PubChem BioAssay.
Sa helicase inh = S. aureus DNA helicase inhibition; purified S. aureus helicase, fluorescence unwinding assay; about half of the hits fall short of the stated cut; 120,000 compounds, 0.05% hits; inhibition, %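 (tested at about 80 µM)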;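 active = both duplicates at 50% or more, or one of them with a favoured structure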;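 also: 0% = mean of negative control wells and 100% = mean of positive control wells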
MgrA-DNA mod = modulators of Staphylococcus aureus MgrA DNA binding; 84,000 compounds, 0.13% hits; inhibition, %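 (about 10 µg/mL by stock and volumes)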; AID 602314; fluorescence polarization;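 active = above 50% in either of two replicates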;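 also: 0% = protein plus DNA without compound and 100% = DNA alone without protein; higher means less MgrA bound to DNA so lower polarization; one replicate is shown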
* marks the source's active call; other numbers are inactive results; / = no result given; & = joins results of further samples.

SMILES	Sa helicase inh	MgrA-DNA mod
C=CCOC(=O)C1=C(C)OC(N)=C(C(=O)OCc2ccccc2)C12C(=O)Nc1ccccc12 (configuration not stated)	/	-0.1
O=C(c1ccccc1)C12CN3CN(CN(C3)C1)C2	16	9.2
Cc1[nH]c(=O)[nH]c(=O)c1C1N2CC3(C)CN1CC(C)(C2)C3=O (configuration not stated)	-3	/
O=c1cccc2n1CC1CC2CN(C(=S)Nc2ccccc2)C1 (configuration not stated)	2	/
CN(C)CC#Cc1ccc(C=C(C#N)C#N)cc1	-54	/
CSc1ncccc1C1=N/C(=C\N(C)C)C(=O)O1	/	0.5
O=c1cccc2n1CC1CC2CN(C(c2ccccc2)c2sc3ncnn3c2O)C1 (configuration not stated)	-4	/
CS(=O)(=O)OCCN1CCN(S(C)(=O)=O)CC1	/	-1.8
CCOc1cc2c(cc1OCC)-n1cccc1C(c1c(O)cccc1OC)NC2 (configuration not stated)	1	0.3
O=C1CC(c2cccnc2)Nc2ccc3ccccc3c21 (configuration not stated)	8	-1.8
CCOC(=O)c1cc(S(=O)(=O)N2CC3CC(C2)c2cccc(=O)n2C3)cn1C (configuration not stated)	-25	/
Nc1c2c(nc3sc4c(c13)CCCC4)CCCC2	23	1.9
CN1CC(CNC(=O)OCc2ccccc2)CC2c3cccc4c3c(cn4C)CC21 (configuration not stated)	/	1.2
c1ccc2c(CNC3CCCCCC3)c[nH]c2c1	8	1.1
CN1C2CCC1CC(OC(=O)C1(c3ccccc3)CCCC1)C2 (configuration not stated)	-5	2.4
N#CCCNc1ccccc1	-5	/
CC1(C)CN=C(Nc2ccc(F)cc2)S1	/	-1.1
COc1cccc2cc(-c3cc(=O)oc4cc(C)c(OC(=O)N(C)C)cc34)oc12	8	/
CCOC(=O)c1c(C)n(Cc2ccccc2)c2ccc(OCC(O)CN3CCCCCC3)cc12 (configuration not stated)	5	-3.5
Cc1ccc2c(c1)C1CN(C)CCC1N2C(=O)c1ccc(Br)cc1 (configuration not stated)	9	/
C[C@@H]1CC([C@H](O)CC2CC(=O)NC(=O)C2)C(=O)[C@@H](C)C1 (some centres not stated)	/	1.9
O=S(=O)(c1ccc(F)cc1)N1CCCC1c1cccnc1 (configuration not stated)	/	-1.1
CCC1=C(C)C(N2CCOCC2)=NP(N2CCOCC2)(N2CCOCC2)=N1	-3	/
Cc1ccc(C(c2c(O)[nH]c(=O)[nH]c2=O)N2CCCC2)cc1 (configuration not stated)	14	/
O=S(=O)(c1ccc(O)cc1)c1ccc(O)cc1	4	2.4
CCC(C)N=Cc1c(O)[nH]c(=O)[nH]c1=O (configuration not stated)	4	-1.7
C=CCC1C(=O)NC(=S)NC1=O	/	14
C=CCNC(=O)c1c(N)n(Cc2ccc(OC)cc2)c2nc3ccccc3nc12	3	/
Cn1c2ccccc2c2c(C(=O)N3CCC4(CC3)OCCO4)cn(C3CCCC3)c(=O)c21	28	/
COc1ccc(NC2=NCC(C)S2)cc1 (configuration not stated)	-3	-0.9
COc1ccc2c(c1)c(C(=O)OCC(N)=O)c(C)n2C1CCCCC1	23	/
O=C(COc1ccc(Cl)cc1)NC1CN2CCC1CC2 (configuration not stated)	13	-1.7
Cc1cc(OCC(=O)NC2CCCC(C)C2C)c2c3c(c(=O)oc2c1)CCCC3 (configuration not stated)	-13	-0.9
Cc1cc(OCC(=O)N(C)C)c2c3c(c(=O)oc2c1)CCCC3	6	-11
CN1CC=C(c2noc(CCC(=O)Nc3ccc(F)cc3F)n2)CC1	13	4.9
CN(C)C(=O)Oc1ccc2nnc3ccnn3c2c1	/	3.4
CCN(CC)C(=O)c1ccc(N(Cc2ccccc2Cl)S(C)(=O)=O)cc1	-14	1.0
C/C(=C\c1ccc(C#N)cc1)[N+](=O)[O-]	/	1.0
COc1cc(CNCCc2c[nH]c3ccccc23)cc(OC)c1O	38	/
COC(=O)C1=C(C)OC(N)=C(C(=O)OC(C)C)C12C(=O)Nc1ccccc12 (configuration not stated)	/	-2.0
CN1C(=O)NC(=O)/C(=C\c2ccc(OCc3ccc(C(=O)O)cc3)c(Br)c2)C1=O	/	14
Cc1ccc2nc(C)c3c(c2c1)OCN(CC1CCCO1)C3 (configuration not stated)	-6	/
CN=C(Cl)c1ccco1	-9	/
O=c1c2ccccc2nc(N2CCCCC2)n1-c1ccccc1	11	/
CCO/N=C/c1c[nH]c2c(CC)cccc12	-6	/
O=c1c2c3c(sc2nc(SCCS(=O)(=O)F)n1-c1ccccc1)CCCC3	/	-1.2
CCN1CCN(C(=O)COc2ccc(S(=O)(=O)N(C)Cc3ccccc3)cc2)CC1	20	0.2
O=C1C2CCCC1C(N1CCCCC1)CC2 (configuration not stated)	11	/
Nc1ccc(Cl)cc1C(=O)c1ccccc1	17	/
CCCCN1CC2CC=C(Cl)CC2C1 (configuration not stated)	4	/
CC1CCN(CC(=O)c2cccc(Br)c2)CC1	0	/
Cc1ccc(-c2nc3ccccc3c(=O)n2-n2cccc2)cc1	-11	/
Cc1ccccc1C=C1C(=O)N(C)C(=S)N(C)C1=O	14	20
Oc1ccc(-c2ccccc2)cc1	3	/
CN(C)C(=O)Nc1ccc(Cl)cc1	-5	/
O=C(Nc1ccc(Cl)cc1C(=O)c1ccccc1)c1ccc([N+](=O)[O-])cc1	/	0.8
CSc1nc2nc(C)c(CC(=O)N3CCN(Cc4ccc5c(c4)OCO5)CC3)c(C)n2n1	5	/
COCCOC(=O)C1=C(N)OC(C)=C(C(C)=O)C12C(=O)Nc1ccc(Br)cc12 (configuration not stated)	/	-1.5
CN1CCC(O)(c2ccccc2)C(C(=O)c2ccccc2)C1 (configuration not stated)	1	-11
CCNC(=O)[C@H]1O[C@@H](n2cnc3c(N)ncnc32)C(O)[C@H]1O (some centres not stated)	/	0.0

The listing continues.
SMILES	Sa helicase inh	MgrA-DNA mod
CN(C)CC1CCCCC1=O (configuration not stated)	17	-0.5
COc1ccc(CCN(C)Cc2ccncc2)cc1OC	8	-2.1
COCc1c(CN)cnc(C)c1N	5	-4.5
C1=C(c2ccccc2)CCN(Cn2nnc(-c3ccccc3)n2)C1	-5	/
CC(NC(C)(C)C)C(=O)c1cccc(Cl)c1 (configuration not stated)	/	4.0&4.7
CCc1cc2c(cc1-c1csc(-c3ccc(OC)cc3)n1)C(C)(C)CCC2(C)C	/	0.8
CC(=O)O[C@H]1CC[C@@]2(C)C(=CC[C@@H]3[C@@H]2CC[C@]2(C)C(=O)CC[C@@H]32)C1	/	-0.6
Cc1c([N+](=O)[O-])cc2c(c1[N+](=O)[O-])C(C)(C)CC2(C)C	/	-2.9
O=C1OC(c2ccc(Br)cc2)=N/C1=C\N1CC2CC(C1)c1cccc(=O)n1C2 (configuration not stated)	/	-1.2
COCCNP(=O)(c1ccccc1)c1nc2ccccc2s1 (configuration not stated)	-11	/
O=c1[nH]c(=S)[nH]c(O)c1-c1ccccc1	/	9.9
CN(C)C(=O)Oc1nc(-c2ccc(Cl)cc2)cs1	/	-0.2
COc1ccc(C[C@H]2NC[C@H](O)[C@H]2OC(C)=O)cc1	/	2.1
Cc1ccc(C(=O)C2CN3CCC2CC3)cc1 (configuration not stated)	11	/
CN1CCC2(CC1)CC1CC3C=CC1(CN2)O3 (configuration not stated)	14	/
Cc1cccc2cc(C=C(C#N)C#N)c(Cl)nc12	1	9.8
COc1ccccc1NC1(C#N)CCCCC1	17	/
Cc1onc(-c2ccccc2Cl)c1C(=O)Nc1ccc(Cl)cc1C(=O)c1ccccc1	/	-1.8
O=C1CC(c2cnc[nH]2)C2(CCCCC2)O1 (configuration not stated)	/	0.1
Cc1cccc(C)c1NC1=NCCS1	/	-1.6
CC1=C(O)C(=O)C=C2C1=CC=C1[C@@]2(C)CC[C@@]2(C)[C@@H]3C[C@](C)(C(=O)O)CC[C@]3(C)CC[C@]12C	/	30
Cc1ccccc1NC(=O)c1cc(-c2ccccc2)n(CCCN2CCOCC2)c1C	/	0.0
CC1CN(C)C(C)CC1n1[nH]c(=O)cc1N (configuration not stated)	12	-1.1
N#CC(CCN1CCOCC1)(c1ccccc1)c1ccccc1	0	/
CCOc1cc(C=C2C(=O)N(C)C(=O)N(C)C2=O)cc(Cl)c1OCc1ccccc1	/	-0.6
CCN1C[C@]2(C)CC[C@H](OC)[C@]34C2[C@H](OC(C)=O)C2(OCO[C@@]25CC(OC)C2C[C@]3(O)C5[C@H]2OC)[C@@H]14 (some centres not stated)	/	-1.9
Cc1ccc(N2C(=O)c3cc(N(C)C)ccc3P2(=O)N2CCOCC2)cc1 (configuration not stated)	-11	/
CC(C)(C)n1cc(C(=O)c2ccccc2O)cn1	/	-1.3
Cc1ccc2c(c1)CNc1ccccc1O2	12	/
CCOC(=O)c1c(N)c[nH]c1NCc1ccc(Cl)nc1	-15	-0.1
NC(=O)CCN1CCCCC1c1cccnc1 (configuration not stated)	-16	/
O=C(O)c1cn(Cc2ccc(Cl)cc2)c2ccccc12	/	1.4
COc1c2c(cc3c1OCO3)CCN(C)C2	/	-0.2
CCOc1cccc(C(O)CNC)c1 (configuration not stated)	5	0.8
CCN1C(=O)N(c2ccccc2)P(=S)(N2CCCC2)c2cc3c(cc21)OCCO3 (configuration not stated)	16	/
Nc1cnn(-c2ccccc2)c(=O)c1Cl	3	/
O=C1C=C2C=C[C@@H]3CC2(O1)[C@H]1CCCCN31	/	0.3
c1ccc(Cn2ccnc2)cc1	/	0.3
CN1Cc2c(ccc3c2OCO3)[C@@H]2[C@H]1c1cc3c(cc1C[C@@H]2O)OCO3	/	-0.7
CCN1C(=O)C(=Cc2ccc(O)c(I)c2)C(=O)N(CC)C1=S	8	18
COc1cc(C2c3cc4c(c(O)c3CC3COC(=O)C32)OCO4)cc(OC)c1O (configuration not stated)	-3	-1.4
O=S(=O)(c1ccc(F)cc1)N1CN2CCN(C2)C1	-21	/
CCOC(=O)C1C2NC(=S)N(c3ccccc3)C1(C)Oc1ccccc12 (configuration not stated)	9	1.8
O=C1OCCC1Sc1ccc(Cl)cc1 (configuration not stated)	2	1.0
CC1CC(C)CN(c2nc3ccccc3c(=O)n2-c2ccc(Cl)cc2)C1 (configuration not stated)	18	-2.0
O=C(Cc1cccc(F)c1)N1CCN(CC(=O)N2CCCC2)CC1	0	/
CN1CCC(NC2C3CC4CC(C3)CC2C4)CC1 (configuration not stated)	10	0.6
Clc1ccc(CN2CCN(Cc3ccccc3)CC2)cc1	5	-3.8
O=C1C=C2C=C[C@@H]3C[C@@]2(O1)[C@H]1CCCCN31	/	0.8
C=CCN1CCN(C(=O)Cc2cccs2)CC1	7	2.6
CCn1nc(-c2ccccc2)nc2c(=O)n(C)c(=O)nc1-2	-133	/
CCOc1ccccc1NC1=NC(C)CS1 (configuration not stated)	-3	/
CCN(CC)C(=O)c1ccc(NC(=O)Cn2nc(-c3ccccc3)c3ccccc3c2=O)cc1	2	/
O=C1C(=Cc2ccco2)C(=O)N(c2ccccc2)C(=O)N1c1ccccc1	3	/
COC(=O)C1C2c3ccccc3OC1(C)N=c1s/c(=C\c3ccc(C)o3)c(=O)n12 (configuration not stated)	10	/
C/C=C1/CN2CCC34C(=C(C(=O)OC)C1CC23)Nc1c(O)cccc14 (configuration not stated)	4	/
Cn1cc(C(=O)OCC(=O)N2CCCC2)c2ccccc21	13	/
O=[N+]([O-])/C=C/c1cccc([N+](=O)[O-])c1	/	0.6
Cn1nc(N)c2c1N=P(N1CCOCC1)(N1CCOCC1)N=C2c1ccccc1	20	/
CCN(CC)P1(=O)OC(c2ccc(F)cc2)=Nc2c1c(C)nn2-c1ccccc1 (configuration not stated)	-15	/

Further structures follow:
SMILES	Sa helicase inh	MgrA-DNA mod
N#CSc1ccc(N)cc1	-20	4.3
COC(=O)C1=C(N)OC(C)=C(C(=O)OCc2ccccc2)C12C(=O)Nc1ccccc12 (configuration not stated)	/	0.9
CC1CN=C(Nc2ccccc2)S1 (configuration not stated)	/	-2.3
N#CCC(=O)c1cccs1	/	4.5
O=C(CN1CC(c2ccccc2)CC1=O)NCCc1ccccc1 (configuration not stated)	12	0.1

An excerpt, so the mix of outcomes need not match the whole.
